Cruzain noTriton: blocks cruzain activity in detergent-free assay; P25779; purified cruzain, Z-FR-AMC fluorescence, no detergent; Potency, µM, for inactives: max response, negative = inhibition, hits mostly inhibitors; 200,000 tested, 2.3% active; AID 1476; active = well fitted curve in the direction sought with a large enough effect; inconclusive = small, poorly fitted or top-dose-only effect, or another doubt; inactive = no such curve, though single readings can be large; an effect the other way counts as inactive or inconclusive;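 also: plate controls were enzyme without inhibitor for no effect and buffer without enzyme for full effect; nearly all actives have a fitted effect of over 40% in size; top concentration of the series not given in the record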
Target sequence (P25779 123-467 limits assumed): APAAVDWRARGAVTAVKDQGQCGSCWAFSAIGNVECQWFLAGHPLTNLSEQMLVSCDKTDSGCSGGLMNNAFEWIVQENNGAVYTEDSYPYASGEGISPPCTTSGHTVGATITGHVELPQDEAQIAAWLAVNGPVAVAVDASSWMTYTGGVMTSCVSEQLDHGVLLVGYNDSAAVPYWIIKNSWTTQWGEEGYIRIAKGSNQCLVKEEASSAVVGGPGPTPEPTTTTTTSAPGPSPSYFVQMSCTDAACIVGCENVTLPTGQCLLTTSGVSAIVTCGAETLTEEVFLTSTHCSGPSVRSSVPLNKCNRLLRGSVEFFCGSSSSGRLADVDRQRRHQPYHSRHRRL
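Detergent-free condition (0.00005% Triton X-100) in acetate buffer pH 5.5 with DTT. 1.5 nM enzyme and compound were pre-mixed 15 min, then 2 uM Z-FR-AMC substrate added; reaction progress from fluorescence change between first and third reads (60 s).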
LASV entry inh: Lassa virus entry inhibition | Lassa virus pseudotype entry inhibition, cell reporter; control for the full effect not named in the record | 300,000 tested, 1.2% active | Potency, µM (series often up to 37.9 µM), inactives show at the top dose activity change, negative = inhibition, most hits filed as inhibitors | AID 540256; active means well fitted inhibition curve with a large enough effect; inconclusive means small, poorly fitted or top-dose-only effect, or effect the other way; inactive means flat fitted curve, though single readings scatter; tested in HEK293 cells; also: % is scaled to controls: 0 for no effect and ±100 for the full control effect; nearly all actives have a fitted effect of over 50% in size; luciferase read-out
NS1 inh: blocks influenza NS1 protein function. S. cerevisiae slowed by influenza A NS1, growth recovery by OD600. Potency, µM (titrated, usually from 46.1 µM), for the others: top-dose activity, positive = more growth. 270,000 tested, 0.4% active. AID 2326; also: actives are rising curves; nearly all actives have a fitted effect of over 50% in size
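A cell-based growth assay was used: compounds that relieve NS1-induced slow growth of budding yeast raise OD600. Assay medium was yeast nitrogen base with ammonium sulphate and -URA supplement, pH 6.0, with 2% galactose.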
RE007 growth inh: less growth of the S. pombe RE007 Vpr strain; Potency, µM (doses to about 92.2 µM), for the others: at the highest dose activity change, negative = less growth; S. pombe RE007 Vpr strain, BacTiter-Glo ATP luminescence, 24 h; control for the full effect not named in the record; 360,000 tested, 0.21% active; active = well fitted falling curve with a large enough effect; inconclusive = small, poorly fitted or top-dose-only effect; inactive = no such curve, though single readings can be large or run the other way;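 also: % is scaled to controls: 0 for no effect and ±100 for the full control effect; nearly all actives have a fitted effect of over 50% in size; the assay follows cell death caused by Vpr and the record does not say whether a fall means rescue or toxicity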
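Fission yeast strain RE007, carrying one chromosomally integrated HIV-1 vpr copy, was seeded at OD 0.01 in PMG+AL medium with 23 nL pinned compound. After 24 h at 30 °C and 99% humidity, viability was read by BacTiter-Glo luminescence.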
Marburg entry inh: blocks Marburg virus binding to or entry into cells; Marburg virus pseudotyped entry inhibition, cell reporter; control for the full effect not named in the record; about a third of the inactives were read at about 46 µM; Potency, µM (titrated, usually from 37.8 µM), without a hit: at the highest dose activity change, negative = inhibition, usual class: inhibitors; 300,000 tested, 1.8% active; AID 540276; active = well fitted inhibition curve with a large enough effect; inconclusive = small, poorly fitted or top-dose-only effect, or effect the other way; inactive = flat fitted curve, though single readings scatter; tested in HEK293 cells; about a fifth of its hits are not listed in these tables; also: % is scaled to controls: 0 for no effect and ±100 for the full control effect; luciferase read-out
SARS PLpro yeast: inhibitors of SARS-CoV papain-like protease in yeast. S. cerevisiae expressing SARS-CoV PLpro, growth rescue; control for the full effect not named in the record. Potency, µM (doses to about 32.9 µM), for the others: at the highest dose activity, positive = growth rescue. 330,000 tested, 0.19% active. AID 485353; also: 0% is about no effect; nearly all actives have a fitted effect of over 55% in size; growth read by luminescence after 48 h
StopGo reporter: lowers the luciferase signal of an FMDV 2A StopGo reporter. Potency, µM (series often up to 57.9 µM), for inactives: at the highest dose signal change, negative = less light. AID 1159524. human cells with a luciferase reporter of 2A StopGo recoding; control for the full effect not named in the record. 410,000 tested, 1.2% active; active = well fitted falling curve with a large enough effect; inconclusive = small, poorly fitted or top-dose-only effect; inactive = no such curve, though single readings can be large or run the other way; tested in HEK293T cells; also: % is scaled to controls: 0 for no effect and ±100 for the full control effect; nearly all actives have a fitted effect of over 45% in size; luciferase light after 4 h
Cruzain Triton: cruzain (T. cruzi) inhibition with detergent. P25779. purified cruzain, Z-FR-AMC fluorescence, 0.01% Triton. Potency, µM, for the others: max response, negative = inhibition, most hits filed as inhibitors. 200,000 tested, 0.43% active; active = well fitted curve in the direction sought with a large enough effect; inconclusive = small, poorly fitted or top-dose-only effect, or another doubt; inactive = no such curve, though single readings can be large; an effect the other way counts as inactive or inconclusive;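 also: plate controls were neutral wells for no effect and buffer without enzyme for full effect; nearly all actives have a fitted effect of over 40% in size; top concentration of the series not given in the record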
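Purified cruzain (1.5 nM final) was preincubated with compounds for 15 min at room temperature in 100 mM sodium acetate pH 5.5, 5 mM DTT, 0.01% Triton X-100. Reaction started with 2 uM Z-FR-AMC; AMC fluorescence change over 60 s gave activity.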
An asterisk follows results filed as active; ? = inconclusive; . = no result given; & = joins results of further samples; [ ] = another dose, or the depositor's remark. Unless noted, calls follow the shape of the dose curve; as a rule, active means well fitted rising curve with a large enough effect; inconclusive means small, poorly fitted or top-dose-only effect; inactive means no such curve, though single readings can be large or run the other way. Potency is read from the fitted curve at half-maximal effect.

molecule	Cruzain noTriton	LASV entry inh	NS1 inh	RE007 growth inh	Marburg entry inh	SARS PLpro yeast	StopGo reporter	Cruzain Triton
O=C(/C=C/c1cccs1)NC(=S)NNC(=O)c1ccccc1O	.	?	.	5%	?	?	-14%	.
CCCN(Cc1nc(-c2ccc(Cl)cc2)no1)CC1CCCO1 (stereo unspecified)	.	20%	-2%	4%	0%[46.1 µM]	0%	-5%	.
CCc1ccccc1NC(=O)Cn1ncc2c(C)n(Cc3ccccc3F)c(C)c2c1=O	11%	-15%[46.1 µM]	.	.	4%[46.1 µM]	.	-9%	0.4%
C[C@H](NC(=O)COc1ccc(Cl)cc1)C(=O)N1CCC2(CC1)NCCc1[nH]cnc12	.	?	2%	8%	9%[46.1 µM]	-3%	8%	.
Cc1ccc2nc(Cl)c(/C=N/n3c(C)nnc3C)cc2c1	.	17%	.	1%	-17%	-1%	27%	.
CC(C)Cn1c(SCC(=O)Nc2cccnc2Cl)nnc1-c1ccco1	.	-2%[46.1 µM]	.	-5%	-13%[46.1 µM]	-3%	7%	.
CCCC(=O)N(c1ccc2oc3c(c2c1)CCCC3)S(=O)(=O)c1cc(C)ccc1C	3%	17%[46.1 µM]	.	.	7%[46.1 µM]	.	0%	-2.7%
O=C(CCl)N1c2ccccc2SCC1c1ccccc1 (stereo unspecified)	.	?	-53%	8%	?	-53%	28µM*	.
Cn1c(/C=N/O)nc2ccccc21	.	.	0%	0%	.	0%	26%	.
O=S(=O)(c1cccc(S(=O)(=O)N2CCC(N3CCCCC3)CC2)c1)N1CCOCC1	-1%	.	2%	.	3%	3%	.	2.1%
O=C(O)C1CCCCN1S(=O)(=O)c1cccc2nsnc12 (stereo unspecified)	-12%	9%	2%	-17%	?	24%	3%	-3.5%
CN(C)CCn1c2c(c(SCC(=O)Nc3ccc(F)cc3F)nc1=O)CCC2	-1%	2%[46.1 µM]	.	.	.	.	-23%	-1.2%
NS(=O)(=O)c1ccc(CCNC(=O)c2cc(-c3cc(Cl)ccc3O)n[nH]2)cc1	.	.	-2%	7%	.	2%	0%	.
Cn1c(-n2cccc2)c(-c2c(-c3ccccc3)[nH]c3c2c(=O)n(C)c(=O)n3C)c(=O)n(C)c1=O	8%	-2%[46.1 µM]	.	.	0%[46.1 µM]	.	1%	3.1%
Cc1c(-c2nc(-c3ccccc3)no2)nnn1-c1ccc(F)c(Cl)c1	-1%	20%[46.1 µM]	.	.	.	.	27%	3.6%
COc1cccc(CNC(=O)C2CCN(c3nc4ccc(Cl)cc4[nH]3)CC2)c1	-12%	-1%[46.1 µM]	.	.	.	.	-27%	-7.8%
COc1cc(C)ccc1Oc1ccc([N+](=O)[O-])cc1	.	?	.	8%	-4%	.	-7%	.
COc1cccc(/C=N/n2c(-c3cc(C)[nH]n3)n[nH]c2=S)c1O	.	?	-3%	23%	-15%[46.1 µM]	0%	-9%	.
CCOC(=O)c1ccccc1NC(=O)COC(=O)CCNS(=O)(=O)c1ccccc1	.	.	-6%	10%	.	16%	-27%	.
CCN(/N=C/c1ccc(N(C)C)cc1)c1nc2ccccc2[nH]1	-3%	.	-2%	-1%	.	-17%	-6%	-18%
COc1cccc(-n2c(SCC(=O)N3CCOCC3)nc3c([nH]c4ccccc43)c2=O)c1	.	-11%	7%	10%	?	.	.	.
COC(=O)C(Cc1ccc(O)cc1)NC(=O)CCOc1ccc(OC)cc1 (stereo unspecified)	.	.	6%	-4%	.	4%	-19%	.
COc1ccc(C(=O)CCC(=O)NCCc2c[nH]c3ccccc23)cc1OC	.	?	?	3%	-29%[46.1 µM]	0%	0%	.
N#C/C(=C\C=C\c1ccccc1)C(=O)N1CCCC1	.	3%	3%	7%	-8%[46.1 µM]	-6%	-20%	.
CN(Cc1cccc(Cl)c1)C(=O)C1CSC2(C)CCC(=O)N12 (stereo unspecified)	.	-4%	3%	-10%	-9%	25%	-10%	.
CCOc1cc2[nH]c(=S)n(CCCN(CC)CC)c(=O)c2cc1OCC	5%	-3%	0%	-15%	?	12%	-2%	-8.1%
CCOC(=O)c1cc(-c2ccccc2)nn1Cc1ccccc1	-14%	-13%[46.1 µM]	.	.	?	.	50%[activator]	-7.3%
Cc1cccc(NC(=O)Cn2c(=O)n(Cc3ccccc3)c(=O)c3oc4ccccc4c32)c1C	-7%	0%[46.1 µM]	.	.	.	.	-11%	1.3%
O=C(Nc1ccccc1NC(=O)c1ccco1)c1ccco1	6%	-2%	?	6%[3.69 µM]	?	7%	-18%	0.4%
CCOC(=O)c1c(S(=O)(=O)NCc2ccc(OC)cc2)c(C)n(C)c1C	.	.	-13%	-11%	.	-5%	19%	.
O=C(NCc1cccs1)C1CCCN1C(=O)NC1CCCCC1 (stereo unspecified)	-3%	-5%	-3%	14%	17%	-4%	-10%	0.6%
COc1ccc(N2CCN(C(=O)COC(=O)CCc3ccccc3OC)CC2)cc1	.	3%	.	11%	-24%[46.1 µM]	.	-11%	.
O=c1[nH]cc(C(F)(F)F)cc1NS(=O)(=O)c1ccccc1[N+](=O)[O-]	.	3%	.	3%	-10%	-1%	18%	.
COCc1cc(=O)n2[nH]c(-c3ccccc3)cc2n1	1%	11%	4%	8%	11%[46.1 µM]	5%	40%[activator]	2.9%
COc1ccc(N2CCN(C(=O)CN3C(=O)NC(c4ccc(OC)cc4)(c4ccc(OC)cc4)C3=O)CC2)cc1	.	-14%	-12%	3%	-24%	-4%	-21%	.
CC(C)c1cc(CN2CCOCC2)cc(C(C)C)c1O	.	.	1%	0%	.	0%	-20%	.
COc1cccc(N2CCN(S(=O)(=O)c3ccc4c(c3)CCCN4C(C)=O)CC2)c1	-3%	-15%[46.1 µM]	.	.	.	.	-29%	1.1%
COc1cc(Cl)c(C)cc1NC(=O)CNC(C)c1ccccc1OC (stereo unspecified)	.	?	.	8%	?	-8%	-10%	.
CCCOC(=O)c1sc2nc3c(cc2c1N)C(=O)CCC3	12%	27%	-7%	6%	13%	-2%	36%[activator]	-0.2%
CCc1ccc(S(=O)(=O)Nc2cc3c(cc2C)n(C)c(=O)c(=O)n3C)cc1	-12%	-9%[46.1 µM]	.	.	.	.	11%	-2.9%
CCCN(c1ccccc1F)S(=O)(=O)c1cc(-c2cc(C)no2)ccc1OC	.	.	5%	8%	.	-1%	-21%	.
COc1cccc(N2CCN(C(=O)c3cccn4c(=O)c5c(C)c(C)sc5nc34)CC2)c1	.	-1%[46.1 µM]	.	10%	-9%[46.1 µM]	-2%	-20%	.
CCc1cccc(C)c1NC(=O)C(CC)n1ncn2c(cc3cc(C)ccc32)c1=O (stereo unspecified)	1%	14%[46.1 µM]	.	.	13%[46.1 µM]	.	-3%	-2.6%
COc1ccc(NC(=O)C2=C(C)NC(=O)NC2c2cccs2)c(OC)c1 (stereo unspecified)	.	1%[46.1 µM]	4%	1%	-1%[46.1 µM]	0%	0%	.
Cc1[nH]c(=O)[nH]c(=O)c1S(=O)(=O)Nc1ccc(Oc2ccccc2)cc1	-7%	0%	-5%	-3%	4%	12%	-13%	0.8%
O=C(N/N=C\c1ccccn1)C1COc2cc3ccccc3cc2O1 (stereo unspecified)	4%	-5%	-173%	?	6%	-29%	-20%	-4.8%
OCCOCCn1c2ccccc2c2ccccc21	2%	-3%	-120%	-7%	11%	2%	-2%	-2.6%
COc1cccc(C(=O)Nc2cccc(OC(C)=O)c2)c1	-7%	2%	-4%	-7%	-28%	-4%	.	2.0%
Cc1ccccc1N/C(=N/S(=O)(=O)c1cc(F)ccc1F)c1ccccc1	.	.	19%	11%	.	2%	19%	.
CC(=C/c1ccccc1)/C=N/NC(=O)CSc1nc(C)cc(C)n1	0%	-2%	-9%	-6%	-17%	-21%	-3%	-11%
NS(=O)(=O)c1ccc(CCNC(=O)c2ccc3nccnc3c2)cc1	.	2%	.	-16%	-29%&-29%	-26%	-21%	.
C[C@H]1CC[C@]2(O[C@H](CCO)C[C@@H](O)[C@@H]2O)O1	.	.	?	1%	.	2%	1%	.
CCc1ccc(NC(=O)CSC2=Nc3ccccc3C3=NC(CCC(=O)NCCc4ccccc4)C(=O)N23)cc1 (stereo unspecified)	6%	5%[46.1 µM]	.	.	.	.	-27%	1.8%
Cc1nc2cc(C(F)(F)F)ccc2n1C1CCN(CC(=O)N2CCOCC2)CC1	-14%	0%	0%	23%	4%[46.1 µM]	-1%	10%	-2.6%
CSc1ccc(/C=N/NC(=O)c2cc(O)cc(O)c2)cc1	0%	?	-3%	-9%	?	-15%	0%	-10%
CC(=O)c1ccc(NC(=O)Nc2ccc(NS(=O)(=O)c3ccc(C)cc3)cc2)cc1	6%	-18%	7%	-13%	-25%	3%	-16%	-7.7%

Additional compounds follow:
molecule	Cruzain noTriton	LASV entry inh	NS1 inh	RE007 growth inh	Marburg entry inh	SARS PLpro yeast	StopGo reporter	Cruzain Triton
Cc1ccccc1N(CC(=O)NCc1ccc2c(c1)OCO2)C(=O)C1CSC(=O)C1 (stereo unspecified)	.	-13%	-11%	2%	-1%[46.1 µM]	1%	16%	.
CCCCCCCCNC(=O)/C(C#N)=C/c1ccc2c(c1)OCCO2	21%	4%	10%	14%	4%	14%	-4%	-13%
Cc1nc2cc(NS(=O)(=O)c3ccccc3)ccc2n1C	.	7%[46.1 µM]	2%	-4%	-1%[46.1 µM]	0%	-4%	.
COc1cc(CN2CCN(Cc3cccc(OC)c3OC)CC2)cc(OC)c1	.	?	-3%	-21%	?	-2%	-11%	.
CCCCCCCCNc1nc(Cl)nc(NCCN2CCOCC2)n1	.	.	3%	-9%	.	0%	-22%	.
Brc1ccc(-c2nnc3ccc(N4CCN(c5ccccc5)CC4)nn23)cc1	2%	3%	-13%	-24%	-5%	0%	21%	11%
CC(C)(CN1CCCC1)NS(=O)(=O)c1ccccc1	.	.	5%	-8%	.	0%	-13%	.
COc1ccc(CN(C(=O)c2oc3cc(C)c(C)cc3c2C)C2CCS(=O)(=O)C2)cc1OC (stereo unspecified)	.	?	-12%	8%	-8%[46.1 µM]	-2%	?	.

Source: PubChem BioAssay (National Center for Advancing Translational Sciences (NCATS))
